Mtb growth: M. tuberculosis H37Rv growth inhibitors, H37Rv strain (AID 1626); M. tuberculosis H37Rv growth inhibition; higher % means a stronger effect; inhibition, % at 10 µM, or IC50 in µM where a hit was titrated; 220,000 compounds, 0.95% hits;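 active = confirmed in a dose series; inconclusive = inhibition above 80% but not taken into the dose series; inactive = below 80% or under 30% at every dose of the series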;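 note: bacteria incubated seven days before Alamar blue readout; 0% = bacteria only wells and 100% = bacteria with antibiotic wells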
RecA splice inh: blocks M. tuberculosis RecA intein splicing; 290,000 compounds, 0.75% hits; inhibition, %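 (about 9 µM by stock and volumes)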; P9WHJ3; cell-free RecA intein splicing, fluorescence; in the data active = inhibition above about 30%; inconclusive = no clear call, values can overlap the other calls;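 note: 0% = vehicle wells and 100% = reference inhibitor control wells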
Target sequence (P9WHJ3 whole entry, looked up, canonical isoform): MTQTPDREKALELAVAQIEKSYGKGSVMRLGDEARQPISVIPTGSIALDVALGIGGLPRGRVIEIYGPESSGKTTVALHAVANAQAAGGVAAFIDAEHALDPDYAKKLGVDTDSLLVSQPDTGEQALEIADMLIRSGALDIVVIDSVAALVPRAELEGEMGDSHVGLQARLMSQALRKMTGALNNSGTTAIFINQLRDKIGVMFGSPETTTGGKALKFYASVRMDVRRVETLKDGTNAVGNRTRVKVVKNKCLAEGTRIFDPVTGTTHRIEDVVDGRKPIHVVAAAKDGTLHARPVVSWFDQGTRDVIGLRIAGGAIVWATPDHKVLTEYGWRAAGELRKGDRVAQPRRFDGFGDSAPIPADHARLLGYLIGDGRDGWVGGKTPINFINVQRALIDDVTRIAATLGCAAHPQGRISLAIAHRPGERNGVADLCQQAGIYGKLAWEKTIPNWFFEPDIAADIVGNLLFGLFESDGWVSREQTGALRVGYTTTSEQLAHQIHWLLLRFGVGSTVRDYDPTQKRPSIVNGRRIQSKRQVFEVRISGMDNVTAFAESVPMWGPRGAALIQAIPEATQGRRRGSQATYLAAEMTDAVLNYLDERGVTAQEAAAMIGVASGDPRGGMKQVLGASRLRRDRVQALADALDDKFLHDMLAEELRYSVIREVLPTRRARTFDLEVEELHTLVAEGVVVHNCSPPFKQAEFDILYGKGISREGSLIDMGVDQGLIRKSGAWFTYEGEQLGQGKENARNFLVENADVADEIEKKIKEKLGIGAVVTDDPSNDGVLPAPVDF
Mtb betalactam: beta-lactam sensitization of Mtb H37Rv; M. tuberculosis H37Rv growth with meropenem, percent inhibition; hits of this screen are not shown here; inhibition, % at 25 µM; 330,000 compounds, 0.27% hits; AID 434955;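 active = about 74% or more and at least 40 points above the plate without the antibiotic, then above 30% in a dose series; inconclusive = first-round hits that could not be retested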;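 note: growth measured after seven days incubation then overnight dye step; 0% = bacteria only wells and 100% = bacteria with antibiotic; twin plates without the antibiotic show which effects depend on it; some results filed as inactive read as strong as hits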
YopH inh: inhibitors of Yersinia enterocolitica YopH tyrosine phosphatase; inhibition, %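 (about 10 µM by stock and volumes)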; fluorescence Ex485/Em525; 140,000 compounds, 0.16% hits;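 active = inhibition of 50% or more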;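 note: controls were vehicle for no effect and minimum signal wells for full effect; inactives centre near -20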
Arbovirus inh: arbovirus infection inhibition; arbovirus infection cell-based antiviral screen; inhibition, % at 10 µM; 200,000 compounds, 0.37% hits; AID 1251;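 active = inhibition from about 30%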;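 note: bluetongue infection of BSR cells; cell survival read as ATP light after 72 h; 0% = infected wells without compound and 100% = uninfected wells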
Arbovirus inh repeat: second read-out of Arbovirus inh, no call of its own (marks repeat the call); inhibition, %; measured here: 10K subset replicate screen; many hits read low in the repeat;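 first of two repeat runs on a subset; 0% = infected and 100% = uninfected wells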
* = called active by the depositor; ? = inconclusive; · = not tested or not shown; & = joins results of further samples.

SMILES | Mtb growth | RecA splice inh | Mtb betalactam | YopH inh | Arbovirus inh | others
COc1ccc(C2=NN(C(=O)c3ccccc3C(=O)O)C(c3ccccc3O)C2)cc1 (centres undefined) | · | -3.5 | 1 | · | ·
Cc1ccc(S(=O)(=O)NC2(C(=O)O)CCCCC2)cc1 | -2% | -3.8 | -7 | 1 | 6
NC(=Nc1ccc(Br)cc1)c1ccccc1 | · | -2.1 | 0 | · | ·
COc1ccc(CN=Cc2[nH]c3ccc(Br)c(Cl)c3c2O)cc1 | · | 29 | -8 | 2 | -7
CCOc1cccc(CN2CCCC(CCC(=O)NCc3ccccc3F)C2)c1O (centres undefined) | -2% | -2.6 | -4 | · | 14
CC(=O)OC1CC(C)N(C(=O)c2ccccc2)c2ccc(C)cc21 (centres undefined) | -2% | 1.4 | -10 | -31 | -4
CCCc1cc(C(=O)NNC(=S)NC(C)c2ccccc2)cs1 (centres undefined) | -3% | 9.0 | 2 | -22 | 6
Cc1cc(N2C(=O)Cc3ccccc3C2=O)ccc1C(C)C | · | 4.6 | -1 | · | ·
O=C(O)c1cccc2c(/C=N/Nc3ccccn3)c[nH]c12 | -6% | · | -4 | · | ·
Cc1ccc2c(c1)S/C(=C/c1ccc[n+](C)c1)N2CCO | -4% | 1.0 | 5 | · | 1
CSc1nc(N)c2c3c(sc2n1)CN(C)CC3 | · | -3.9 | -2 | · | ·
Cc1cccc(OCC(=O)N2CCC(N3CCOCC3)CC2)c1 | 2% | 1.5 | -6 | -32 | 2
CN(CCC1CCOCC1)C(=O)CC1C(=O)NCCN1C/C=C/c1ccccc1 (centres undefined) | -1% | -3.7 | -7 | · | 4
O=C(NCc1cccnc1)NC1(C(F)(F)F)Oc2ccccc2O1 | -9% | -7.5 | 42 | -24 | -15 | Arbovirus inh repeat=-11
O=C(Nc1cccc(-c2nc3ccccc3[nH]2)c1)c1cccc(NC(=O)c2ccco2)c1 | 5% | -19 | -4 | -36 | -38
Cc1ccc(Oc2nc3c(C)cccn3c(=O)c2/C=C(\C#N)C(N)=O)cc1 | -5% | -5.2 | -16 | · | ·
CCN(CC)CCC(=O)NN | -2% | -4.5 | 3 | · | 1
CCOC(=O)C1=C(C)NC(=O)NC1C (centres undefined) | -2% | -1.7 | 3 | -20 | 3
O=C(Nc1nc2c(s1)CCCC2)c1cc(-c2ccc3c(c2)OCO3)nc2ccccc12 | 15% | -3.2 | 98 | -17 | 12
CC12CCC(=O)N1c1c(sc3nc(N4CCOCC4)c4c(c13)CCCC4)C(=O)N2 (centres undefined) | -10% | -147 | 1 | -4 | 6
CCOC(=O)c1[nH]c2ccc(OC)cc2c1C(SCC(=O)O)c1ccc(C(F)(F)F)cc1 (centres undefined) | · | 8.9 | -8 | · | ·
Cc1cccc(OCC(=O)NC(=S)N2CCCc3ccccc32)c1 | 18% | 1.3 | 16 | -18 | -4
COc1ccc(NS(=O)(=O)c2cc(NC(=O)c3ccc(C)o3)ccc2N2CCCCC2)cc1 | 30% | 2.7 | ? | -14 | 7
O=c1c2ccccc2ncn1-c1ccc(Cl)cc1 | -5%&-9% | 2.2&0.4 | -2&0 | · | ·
O=S(=O)(c1ccc(F)cc1)N1CCN(CC(O)COCc2cccs2)CC1 (centres undefined) | -9% | 1.4 | ? | -22 | 5
CC1(C)CC(=O)C2=C(C1)OC(N)=C(C#N)C21C(=O)N2CCCc3cccc1c32 (centres undefined) | -1% | 0.2 | -4 | -106 | 2
O=C(NC(=S)Nc1ccc2c(c1)OCCO2)c1ccc(F)cc1Cl | 5% | 0.2 | 7 | -47 | -1
Cc1cc(-c2cn3ccccc3n2)c(C)n1-c1ccccc1 | -1% | 13 | 69 | · | -7
CC(C)c1ccc(-c2c(C#N)c(N)nc3c2CCCCC3)cc1 | 5% | -2.8 | -2 | -7 | 9
COCCn1cc(C(=O)N2CCN(C)CC2)c2c3ccccc3n(C)c2c1=O | -2% | 0.1 | -11 | -41 | 9
CCCCCOC(=O)C1=C(C)NC(=O)NC1c1ccc2c(c1)OCO2 (centres undefined) | · | 5.7 | 0 | · | ·
CC(C)(C)NC(=O)/C(=C\c1ccccc1F)NC(=O)c1ccc([N+](=O)[O-])cc1 | -3% | 1.3 | -1 | · | 1
CC(C)(C)OC(=O)CNC(=O)c1[nH]cnc1C(=O)Nc1ccc(CNC(=O)OC(C)(C)C)cc1 | -4% | -4.0 | -7 | · | ·
CCCCc1nnc(NC(=O)CC(=O)Nc2ccccc2C(=O)O)s1 | -6% | -3.3 | -2 | -35 | 6
CCCCCCCCCCOC(=O)Cn1c(COc2ccccc2)[n+](C)c2ccccc21 | · | 47* | 14 | · | ·
Cc1cc(C)n2ncc(/C(N)=N/OC(=O)Nc3ccc(Cl)cc3)c2n1 | 4% | -6.2 | -1 | · | ·
Cc1cccc(NC(=O)NCc2ccc3c(c2)OCO3)c1C | 1% | -1.8 | 0 | · | -20
Cc1cccc(NC(=O)Nc2cccc(F)c2)n1 | -8% | 1.4 | 55 | 14 | -6
Cc1cc(C)c2c(N)c(C(=O)N/N=C/c3cccs3)sc2n1 | -8% | -4.8 | -10 | · | ·
Cc1ccc(-c2nc(N)n(C(=O)c3ccco3)n2)cc1 | -15% | 1.8 | -3 | · | 1
CC(O)C(NS(=O)(=O)c1ccc(Cl)cc1)C(=O)OCC(=O)N1CCN(c2ccccc2)CC1 (centres undefined) | -2% | 0.2 | -8 | 5 | -3
CCN(CC)S(=O)(=O)c1cc(NC(=O)Cc2n[nH]c(=O)c3ccccc23)ccc1C | -7% | -0.2 | 7 | · | ·
Cc1ccc(CSc2nc3ncccc3[nH]2)cc1 | 8% | -0.8 | 1 | -9 | -4
COc1ccc(OCC(=O)Nc2nnc(-c3ccco3)s2)cc1 | 2% | -2.8 | 6 | -20 | 9
Cc1ccc(NC(=S)NC(=O)c2ccccc2)cc1NC(=S)NC(=O)c1ccccc1 | -5% | -11 | 10 | · | ·
Cc1cc(Br)cc2c(C(=O)NCC3CCCO3)cc(-c3cccs3)nc12 (centres undefined) | · | -3.1 | 50 | · | ·
COc1ccc(C(=O)NNC(=O)CSc2ccccc2)cc1 | -4% | -0.5 | -1 | · | -2
C=C[C@]1(C)C[C@@H](OC(=O)CSCCN(CC)CC)[C@]2(C)C(C)CC[C@]3(CCC(=O)[C@H]32)[C@@H](C)[C@@H]1O (some centres undefined) | · | 2.5&4.6 | 95&95 | · | ·
CC(C)CN(CC(C)C)C(=S)NC1CCCCC1 | 2% | 2.0 | 4 | -35 | 6
O=C(CCn1c(=O)oc2ccc(Cl)cc21)NCCCN1CCOCC1 | · | 1.0 | -1 | · | ·
NC(=O)NC(CC(=O)NCc1ccc2c(c1)OCO2)c1ccccc1Cl (centres undefined) | · | 0.4 | -3 | · | ·
O=C(N/N=C/c1cccnc1)C12CC3CC(CC(C3)C1)C2 | -1% | · | -7 | · | 5
Cc1ccc(NC(=O)CSc2nc(CSc3ccc(C)cc3)cc(=O)[nH]2)cc1 | -12% | 1.6 | 6 | · | 0
CCOC(=O)C1CCN(S(=O)(=O)c2ccc(CNC(=O)c3ccccc3)s2)CC1 | · | -1.5 | 2 | · | ·
N/C(=N\OC(=O)c1ccco1)c1ccc(Br)cc1 | 6% | 12 | 3 | 26 | -8
O=C(NC(=S)Nc1cccc(Cl)c1N1CCCCC1)c1ccco1 | 70% | 5.2 | 93 | -18 | -27
O=C(Nc1ccccc1)NC1CC2CCC(C1)N2Cc1nnnn1Cc1ccc2c(c1)OCO2 (centres undefined) | 0% | · | -7 | -13 | 8
O=C(C1=C(O)C(=O)N(CC2CCCO2)C1c1ccc(Cl)cc1)c1ccco1 (centres undefined) | · | 1.1 | 8 | · | ·
O=C(NC(CO)(CO)CO)c1coc(=O)c(Br)c1 | 1% | 0.5 | -1 | -21 | 1
CNC(=S)N1CCC(NC(=O)C(Cc2ccccc2)NC(C)=O)CC1 (centres undefined) | -1% | 4.6 | -2 | · | 8

Three entries out of the list, ordered by SMILES length, smallest number first.
SMILES | Mtb growth | RecA splice inh | Mtb betalactam | YopH inh | Arbovirus inh | others
N/C(=N\OC(=O)c1ccco1)c1ccc(Br)cc1 | 6% | 12 | 3 | 26 | -8
COc1ccc(C(=O)NNC(=O)CSc2ccccc2)cc1 | -4% | -0.5 | -1 | · | -2
O=C(C1=C(O)C(=O)N(CC2CCCO2)C1c1ccc(Cl)cc1)c1ccco1 (centres undefined) | · | 1.1 | 8 | · | ·

Additional compounds follow:
SMILES | Mtb growth | RecA splice inh | Mtb betalactam | YopH inh | Arbovirus inh | others
O=C(CC(=O)NCc1ccccc1)NCc1ccccc1 | · | -0.4 | 3 | · | ·
C#CCn1c(=NC(=O)CN2C(=O)CCC2=O)sc2cccc(C)c21 | 1% | -5.3 | -3 | · | 2 | Arbovirus inh repeat=1
COc1cc(CNn2c(C)n[nH]c2=S)cc(Cl)c1OCc1ccccc1 | -10% | -0.8 | 8 | -28 | -1
C=CCN(C(=O)c1ccc2c(c1)nnn2C)c1ccccc1 | · | -1.0 | 0 | · | ·
Cc1cc(C)cc(-n2nnc(C(=O)NCc3ccc4c(c3)OCO4)c2N)c1 | -2% | 8.0 | -3 | -27 | 2
CC(=O)c1ccc2noc(-c3cccc(C)c3)c2c1 | 10% | -24 | 5 | · | -7
O=C(O)C1CCC(=O)N(C2CC2)C1c1ccccc1 (centres undefined) | 1% | -9.1 | 7 | -42 | 1
CCOc1cc(/C=N/O)cc(Br)c1OCC | -11% | -2.9 | 6 | 33 | -3
Cc1ccc2[nH]c3nc(SCC#N)nnc3c2c1 | · | -1.4 | -2 | · | ·
O=C(c1ccccn1)N(Cc1ccco1)C1(C(=O)NC2CCCCC2)CCCCC1 | -3% | -0.1 | 6 | -23 | 1
CCOc1ccccc1OCC(=O)Nc1ccc(S(=O)(=O)Nc2ncccn2)cc1 | -5% | 3.5 | 5 | -26 | 3
O=C(Oc1cccc(C(=S)N2CCOCC2)c1)c1cccc([N+](=O)[O-])c1 | -5% | -0.5 | -6 | · | 1
COC(=O)c1ccccc1NC(=O)CSc1nc(N)cc(N)n1 | 8% | -2.8 | 81 | · | 3 | Arbovirus inh repeat=4
CN(C)S(=O)(=O)c1cccc(C(=O)NCCCn2ccnc2)c1 | 4% | 0.2 | 13 | · | 3
O=C(O)C1CSC(c2cccnc2)N1 (centres undefined) | -2% | 1.3 | -1 | -17 | 4 | Arbovirus inh repeat=3

Taken from the results shown (4 entries):
SMILES | Mtb growth | RecA splice inh | Mtb betalactam | YopH inh | Arbovirus inh | others
O=C(CC(=O)NCc1ccccc1)NCc1ccccc1 | · | -0.4 | 3 | · | ·
C#CCn1c(=NC(=O)CN2C(=O)CCC2=O)sc2cccc(C)c21 | 1% | -5.3 | -3 | · | 2 | Arbovirus inh repeat=1
COc1cc(CNn2c(C)n[nH]c2=S)cc(Cl)c1OCc1ccccc1 | -10% | -0.8 | 8 | -28 | -1
C=CCN(C(=O)c1ccc2c(c1)nnn2C)c1ccccc1 | · | -1.0 | 0 | · | ·

The listing continues:
SMILES | Mtb growth | RecA splice inh | Mtb betalactam | YopH inh | Arbovirus inh | others
COc1ccc(-n2c(COc3cccc4cccnc34)nnc2SCC(=O)O)cc1 | 2% | 1.0 | -2 | · | 3
CC1C(c2ccccc2)N(C)C(c2ccccc2)CC1(O)c1ccccc1 (centres undefined) | 5.9µM* | 13 | 100 | -16 | -46
COc1ccc(C2=NS(=O)(=O)N(C)C(C(=O)NCc3ccccn3)=C2)cc1OC | · | 0.9 | -3 | · | ·
O=C(Nc1ccc2c(c1)OCCO2)c1ccc(Br)o1 | 6% | -1.7 | 22 | -32 | 0
O=C(Nc1ccc(NC(=S)NC(=O)c2cccs2)cc1)c1ccccc1 | 2% | -0.5 | -1 | -17 | -4
O=C1NCC(O)=C1C=Nc1ccccc1O | ? | · | 98 | · | ·
CC1(C)CC(=O)c2cnc(NC(=O)C3CCCC3)nc2C1 | -4% | -0.4 | 0 | -34 | 3
Cc1csc(CCc2nc(C)cs2)n1 | -13% | -0.3 | -16 | 10 | 1
CCOc1cc2c(cc1OCC)C(c1ccc(C(=O)O)cc1)NCC2 (centres undefined) | · | 0.5 | 6 | · | ·
CC(C(=O)Nc1ccccc1)N(c1cccc(Cl)c1)S(C)(=O)=O (centres undefined) | -1% | -3.2 | -1 | · | 4
CC(=O)Nc1ccc(S(=O)(=O)N2CCc3ccccc3C2CC(=O)O)cc1 (centres undefined) | · | -1.1 | 1 | · | ·
O=C(CNC(=O)c1ccc(Br)cc1)c1ccc(Br)cc1 | · | 0.6 | 14 | · | ·
CCCCN(c1ccccc1)c1ncnc2nc[nH]c12 | 9% | 0.8 | -4 | -30 | 17
O=C(O)Cn1cc(/C=N/NC(=O)c2cc3cc(Br)ccc3o2)c2ccccc21 | 69% | -1.9 | 84 | · | ·
CCOc1ccc2nc(NC(=O)CSc3nc4cccnc4n3C)sc2c1 | 0% | 1.2 | 10 | -6 | -7
COc1cc(NC(=O)CSc2nnc(-c3ccncc3)o2)cc(OC)c1OC | · | 4.0 | -6 | · | ·

Source: PubChem (several laboratories)

A portion of the library, so the mix of outcomes need not match the whole.
